TRPML1 ag: activates the human TRPML1 channel | TRPML1-expressing cells, Ca2+ dye fluorescence, FDSS; host cell line not named in the record; reference of the full effect not given here | activation, % (concentration not given with the values) | 410,000 compounds, 0.12% hits | AID 624414; in the data active = activation above about 50%; inconclusive = about 30% to 50%; inactive = below about 30%; note: 0% is about no effect; the text of the record puts the active cut at 80%
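Tetracycline-induced TRPML1-DL cells are seeded and incubated overnight before loading with a no-wash Ca2+ dye and quencher. Agonist activity is taken from the 110 s fluorescence read following compound pin-transfer on an FDSS, before EC80 54-4 challenge.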
D2 agonist: agonists of human D2 dopamine receptor (beta-arrestin); P14416; DiscoveRx PathHunter D2 beta-arrestin, luminescence, 90 min; 100% = 57 uM dopamine signal; activation, % (no concentration beside the values); 360,000 compounds, 0.084% hits; AID 624465; in the data active = activation above about 40%; inconclusive = about 15% to 40%; inactive = below about 15%; note: compound concentration not given in the record; the text of the record calls up to 30% inactive
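DiscoveRx PathHunter D2 beta-arrestin cells (2,100/well) attached overnight, then compound-stimulated 90 min at 37 C in HBSS/10 mM HEPES/0.1% Tween-20 buffer; beta-galactosidase complementation read by luminescence after 1 h at ambient temperature. Dopamine 57 uM final (EC100) as control.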
Six1-Eya2 blk: inhibitors of human Six1/Eya2 interaction. AlphaScreen GST-Six1/His-Eya2 binding, biochemical; active compounds read low; control for the full effect not named in the record. 360,000 compounds, 0.56% hits. Q15475+O00167. activity change, % (concentration not given with the values); in the data active = activity change below about -65%; inconclusive = about -30% to -65%; inactive = above about -30%; note: % is set by controls: 0 for no effect and ±100 for the full control effect
Target sequence (O00167 whole entry, looked up): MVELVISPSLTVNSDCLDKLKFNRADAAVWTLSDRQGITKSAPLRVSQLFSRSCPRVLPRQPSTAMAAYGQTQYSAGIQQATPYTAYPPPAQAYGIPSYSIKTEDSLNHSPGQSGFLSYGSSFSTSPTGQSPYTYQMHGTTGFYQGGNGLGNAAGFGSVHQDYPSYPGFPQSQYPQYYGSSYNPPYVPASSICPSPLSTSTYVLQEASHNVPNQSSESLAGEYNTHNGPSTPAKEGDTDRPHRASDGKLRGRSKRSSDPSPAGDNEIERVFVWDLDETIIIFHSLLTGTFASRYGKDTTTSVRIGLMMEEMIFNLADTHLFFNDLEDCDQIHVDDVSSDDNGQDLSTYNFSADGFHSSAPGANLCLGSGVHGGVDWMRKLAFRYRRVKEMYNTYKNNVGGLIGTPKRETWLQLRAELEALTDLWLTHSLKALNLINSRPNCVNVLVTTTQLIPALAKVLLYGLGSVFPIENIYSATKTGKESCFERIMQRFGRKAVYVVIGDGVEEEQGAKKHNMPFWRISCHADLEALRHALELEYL
Target sequence (Q15475 whole entry, looked up): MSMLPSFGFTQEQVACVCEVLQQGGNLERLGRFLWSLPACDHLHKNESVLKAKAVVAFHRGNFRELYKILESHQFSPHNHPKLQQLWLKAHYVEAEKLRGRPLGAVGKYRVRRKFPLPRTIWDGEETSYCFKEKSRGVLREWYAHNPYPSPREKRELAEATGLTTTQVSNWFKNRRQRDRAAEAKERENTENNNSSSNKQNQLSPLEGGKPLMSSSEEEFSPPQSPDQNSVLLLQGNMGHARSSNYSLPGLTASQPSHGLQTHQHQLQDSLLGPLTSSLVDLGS
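Six1/Eya2 binding was read as AlphaScreen signal after compounds were pinned into GST-Six1 plus His-tagged Eya2 (5X stock 250/500 nM) in pH 8.0 Tris/NaCl/TCEP buffer, beads added, then incubated 1 h, 37 C, dark.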
PINK1 modulator: modulators of PINK1 expression. PINK1 immunofluorescence, high-content cytometry, 24 h. Potency, µM (highest dose often 76.6 µM), for inactives: top-dose activation (PINK1 increase), hits mostly activators. 410,000 compounds, 0.2% hits. AID 624263; active = well fitted activation curve with a large enough effect; inconclusive = small, poorly fitted or top-dose-only effect; inactive = flat fitted curve, though single readings scatter; cell line not stated here;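 note: potency is the fitted concentration of half-maximal effect; % of control where 0% means no effect; nearly all actives have a fitted effect of over 65% in size; a mitochondrial uncoupler was the plate control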
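A stable cell line was treated with compounds at 5 concentrations for 24 hours, with CCCP as control. PINK1 levels and mitochondrial localization were measured by immunofluorescence with mitochondrial, cell and nuclear markers after fixation, read by laser-scanning cytometry.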
D2 potentiator: positive allosteric modulators of human D2 dopamine receptor; AID 624464; 360,000 compounds, 0.23% hits; DiscoveRx D2 beta-arrestin cells, luminescence, 90 min; 100% = 57 uM dopamine signal; potentiation, % (no concentration beside the values); active = potentiation of 50% or more; inconclusive = 30% to 50%; inactive = 30% or less;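 note: compound concentration not given in the record; tested on top of an EC20 dose of dopamine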
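PathHunter D2 cells, attached overnight at 37 deg C, received compound in DMSO plus dopamine at EC20 (50 nM final) for 90 min at 37 deg C. Beta-arrestin recruitment was read as luminescence after 1 h with detection reagent at ambient temperature.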
TRPML1 inh: human mucolipin-1 channel inhibition; activity change, negative = inhibition, % (no concentration beside the values); Q9GZU1; 390,000 compounds, 0.02% hits; TRPML1-inducible cells, Ca2+ dye fluorescence, FDSS; active compounds read low; inhibition of EC80 agonist-evoked calcium signal; in the data active means activity change below about -50%; inconclusive means about -30% to -50%; inactive means above about -30%;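 note: stimulus is agonist 54-4 at its EC80 concentration; % is set by controls: 0 for no effect and ±100 for the full control effect; compound concentration not given in the record; the text of the record puts the active cut at -80%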
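Calcium fluorescence in TRPML1-DL cells induced overnight with Tet: a 110 s read after compound pin addition, then a 110 s antagonist read after challenge with 54-4 at 4 uM final (EC80).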
* hit, by the source's call; ? = inconclusive; / = not tested or not shown; [ ] = another dose, or the depositor's remark.

Each structure is followed by: TRPML1 ag	D2 agonist	Six1-Eya2 blk	PINK1 modulator	D2 potentiator	TRPML1 inh
1: CCCc1cc(=O)[nH]c(SCCc2ccccc2)n1
  -1.2	10	-12	-1.0%	-1	15
2: COc1ccccc1N1CCN(S(=O)(=O)c2c(C)sc3ncn(CC(=O)Nc4ccccc4F)c(=O)c23)CC1
  -0.8	/	/	3.7%	/	-6
3: O=C(NCCCN1CCCC1=O)c1cc(=O)c2ccccc2o1
  0.5	-3.3	3	0.7%	-4	1
4: COc1ccccc1NS(=O)(=O)c1cc(NC(=O)Nc2ccccc2)ccc1N1CCCCC1
  0.8	3.4	-6	1.7%	13	-16
5: CCOc1ccc(-c2noc(CCCC(=O)NC3CCCC3)n2)cc1OC
  -0.5	-5.8	6	3.7%	-9	-11
6: Cc1cccc(-c2cc3nc(C)cc(C)n3n2)c1
  1.6	-2.4	0	2.3%	2	-2
7: CCOc1ccc(NC(=O)CSc2nccn(-c3ccc4c(c3)OCCO4)c2=O)cc1
  -0.1	-0.6	-6	1.5%	23	22
8: CCOC(=O)c1ccc(NC(=O)Cn2cnc3sc(C(=O)OCC)c(C)c3c2=O)cc1
  -0.5	/	/	0.1%	/	9
9: Fc1ccccc1Cc1noc(CN2CCN(Cc3ccc4c(c3)OCO4)CC2)n1
  0.4	-0.5	-7	-0.2%	-11	-11
10: Cc1ccc(-c2nnc3ccccc3c2C(=O)Nc2ccccc2F)cc1
  1.9	/	/	0.8%	/	-18
11: COc1cc(-c2nnc(Sc3ccc(C(F)(F)F)cc3[N+](=O)[O-])o2)cc(OC)c1OC
  0.5	-1.8	1	0.9%[38.3 µM]	-9	22
12: COc1ccccc1NC(=O)CSc1n[nH]c(-c2ccco2)n1
  0.0	-1.8	11	6.3%	-4	-4
13: Cc1nc2c(-c3ccccc3)c(C)nn2c(C)c1CCC(=O)O
  -0.6	2.8	2	0.8%	-4	-12
14: O=C(NC1CCCC1)C(c1ccccc1)N(Cc1ccccc1)C(=O)c1csnn1 (configuration not stated)
  0.3	6.8	2	1.5%	5	18
15: O=C(COc1ccc(Br)cc1)N(Cc1nnc(-c2ccccc2Cl)o1)C1CC1
  -0.3	-2.4	0	2.0%	-14	-4
16: COc1cc(OC)c2c(-c3cccc(-c4ccc(N(C)C)cc4)c3)cc(=O)oc2c1
  -0.3	1.2	?	5.7%	-1	-6
17: CCCCOCC(O)Cn1c(C)nc2ccccc21 (configuration not stated)
  0.2	1.4	2	/	14	-4
18: CSc1nnc2c(=O)[nH]c(=O)n(C)c2n1
  -0.5	-2.7	-11	2.1%	-4	5
19: COc1cc(OC)cc(C(=O)O/N=C(\N)c2ccccn2)c1
  -1.1	4.8	2	-1.0%	-1	-13
20: CC1C(=O)Nc2ccccc2N1C(=O)c1ccc(F)cc1 (configuration not stated)
  0.5	0.5	2	-1.9%	3	-2
21: CCCC(=O)NC(c1ccc(Cl)cc1)c1ccc2cccnc2c1O (configuration not stated)
  1.1	-0.4	-70*	7.5%	-1	20
22: CC(=O)C[C@@H](O)CC(=O)[C@@H]1OC(=O)CCCCCCCCc2ccccc21
  -0.4	2.8	-5	0.1%	-3	-11
23: O=S(=O)(N1CCCCC1)N1CCNCC1
  1.0	-0.6	6	/	9	-15
24: Cn1cc(C(=O)c2ccc(Cl)cc2Cl)cc1C(=O)N/N=C(\N)COc1cccc(C(F)(F)F)c1
  -0.7	-3.1	-13	0.8%	?	-3
25: COc1ccc(NC(=O)CC2C(=O)N(c3ccc(C)cc3)C(=O)N2C2CCCCC2)cc1 (configuration not stated)
  0.0	/	/	-0.2%	/	5
26: CCOC(=O)c1sc(-c2ccc(C(F)(F)F)cc2)nc1O
  6.9	4.1	-1	2.6%	3	12
27: CCOC(=O)c1cn(-c2c(Cl)cccc2Cl)c2cc(Cl)c([N+](=O)[O-])cc2c1=O
  0.5	5.0	2	-1.8%	5	-5
28: Cc1ccc(NS(=O)(=O)c2cc(C(=O)N(C)C3CCN(C)CC3)ccc2Cl)cc1Cl
  -0.6	-4.5	1	-0.3%	-18	12
29: CCOC(=O)c1[nH]c2ccccc2c1NC(=O)NC(C)C
  1.7	-3.1	0	-0.3%	-4	8
30: COc1cccc(C2CC(c3cccs3)=NN2C(=O)CSc2nc3ccccc3o2)c1OC (configuration not stated)
  0.8	-2.0	9	1.4%	-18	24
31: CCN(CC)S(=O)(=O)c1ccc(N2CCCC2)c(C(=O)OCC(=O)N2CCCC2)c1
  0.9	-0.1	35	2.0%	-7	2
32: CCCOc1ccc(N2CC(C(=O)Nc3ccccn3)CC2=O)cc1 (configuration not stated)
  -0.7	-3.8	-2	1.5%	-5	32
33: CN(Cc1ccccc1)C(=O)COC(=O)c1cc(S(=O)(=O)N(C)C)ccc1N1CCCC1
  1.2	-4.3	-6	-1.2%	-21	0
34: O=C(NCc1ccc(Cl)cc1)c1ccc2c(Cl)c3c(nc2c1)CCCC3
  0.0	/	/	1.3%	/	2
35: COc1cc(NS(=O)(=O)c2ccc(NC(=S)NC(=O)CC(C)C)cc2)nc(OC)n1
  0.2	-3.6	-16	-0.5%	-8	46
36: Cc1oc(-c2ccc(Cl)cc2)nc1CN1CCC(C(=O)NCCCN2CCOCC2)CC1
  -0.3	-1.2	-1	-0.4%[38.3 µM]	-7	59
37: COc1ccc([C@H](OC)[C@@]2(Cc3ccc(O)cc3)N=C(N)N(C)C2=O)cc1
  -0.7	-3.7	2	0.4%	-14	17
38: COC(=O)c1sccc1NC(=O)/C=C/c1c(Cl)cccc1Cl
  2.6	3.2	3	1.9%	3	-8
39: O=S1(=O)CCN2C(=N1)SC1=C2CCN(Cc2ccccc2)C1
  -0.6	-2.5	-9	-0.9%	-13	17
40: CCc1c(C)c2ccc(OCC(=O)NCC3CCC(C(=O)O)CC3)c(C)c2oc1=O (configuration not stated)
  /	-9.5	-11	0.4%	-25	/
41: O=C(COC(=O)C12CC3CC(CC(Br)(C3)C1)C2)NNC(=O)c1ccccc1
  -0.3	2.0	4	0.6%	1	1
42: COc1ccc2c(c1)C(=O)[C@@H](O)[C@H](c1ccc(OC)c(Br)c1)O2
  3.1	-11	-3	?	-17	20
43: COC(=O)[C@@H](NC(=O)c1ccc2c(c1)S(=O)(=O)c1ccccc1C2=O)C(C)C
  -0.2	-5.0	2	1.2%	20	21
44: Brc1ccc(-c2nnc(-c3cccnc3)o2)cc1
  -0.7	-2.4	1	0.5%	-5	-2
45: O=C1c2ccccc2C(=O)N1c1ccccc1
  /	6.3	7	0.9%	-5	/

Structures listed above marked active in Six1-Eya2 blk:
nr	molecule	D2 agonist	Six1-Eya2 blk	PINK1 modulator	D2 potentiator	TRPML1 inh
21	CCCC(=O)NC(c1ccc(Cl)cc1)c1ccc2cccnc2c1O (configuration not stated)	-0.4	-70*	7.5%	-1	20

Complete entries, quoted from the list. Order of screens: TRPML1 ag | D2 agonist | Six1-Eya2 blk | PINK1 modulator | D2 potentiator | TRPML1 inh
Listed for O=C1c2ccccc2C(=O)N1c1ccccc1 → / | 6.3 | 7 | 0.9% | -5 | /
Listed for CCN(CC)S(=O)(=O)c1ccc(N2CCCC2)c(C(=O)OCC(=O)N2CCCC2)c1 → 0.9 | -0.1 | 35 | 2.0% | -7 | 2
Listed for O=C(NCc1ccc(Cl)cc1)c1ccc2c(Cl)c3c(nc2c1)CCCC3 → 0.0 | / | / | 1.3% | / | 2
Listed for COC(=O)[C@@H](NC(=O)c1ccc2c(c1)S(=O)(=O)c1ccccc1C2=O)C(C)C → -0.2 | -5.0 | 2 | 1.2% | 20 | 21
Listed for COc1ccc2c(c1)C(=O)[C@@H](O)[C@H](c1ccc(OC)c(Br)c1)O2 → 3.1 | -11 | -3 | ? | -17 | 20

Later entries
Each structure is followed by: TRPML1 ag	D2 agonist	Six1-Eya2 blk	PINK1 modulator	D2 potentiator	TRPML1 inh
46: Cc1ccccc1C(=O)Nc1nnc(-c2ccco2)o1
  1.3	-8.0	-16	-1.0%	-6	-3
47: O=C1NC(=O)/C(=C/c2ccc(-c3cccc([N+](=O)[O-])c3)o2)S1
  2.3	13	?	0.0%	-6	15
48: Cc1ccc(-c2nc3ncccc3o2)cc1NC(=O)COc1ccccc1
  0.3	-2.0	6	/	25	15
49: CCc1cc(C(=O)OC)c(NC(=O)CC2NCCNC2=O)s1 (configuration not stated)
  0.8	-0.5	-2	-0.4%	-3	3
50: CCS(=O)(=O)c1c(S(=O)(=O)CC)c2ccccn2c1C(N)=O
  0.1	-1.6	2	0.3%	-4	-14
51: Cc1ccccc1-n1c(SCC(=O)Nc2c(C)cccc2C)nc(O)cc1=O
  -0.5	0.4	-2	0.5%	-4	4
52: CCOCCn1c(=NC(=O)CSCC(=O)Nc2cc(C)on2)sc2cc(OC)ccc21
  0.1	0.4	0	3.1%	-3	-16
53: Cc1ccc(OCCCSc2nc(-c3ccc(C(C)(C)C)cc3)nc3cc(=O)[nH]n23)cc1C
  0.4	/	/	3.4%	/	43
54: Cc1ccc(N2CC(C(=O)NCCN3CCOCC3)CC2=O)cc1 (configuration not stated)
  -0.4	-2.1	10	0.6%	1	1
55: CCCOc1ccc(C(=O)NCC(c2cccs2)N(C)C)cc1 (configuration not stated)
  0.2	-1.9	15	-0.7%	-1	9
56: O=C1Nc2ccc(Br)cc2C1(O)c1ccc(F)cc1 (configuration not stated)
  0.9	-1.7	1	3.8%	-2	-3
57: COc1ccccc1NC(=O)NCCN1CCNC1=O
  -0.1	-2.1	-1	0.4%	-13	21
58: Cc1cccc(C(=O)NC(=S)NNC(=O)c2ccccc2Cl)c1
  68*	1.3	-9	6.6%	-12	18
59: Clc1ccccc1-c1nnc2n1-c1ccccc1SC2
  3.5	-9.4	5	-0.6%	-3	14
60: CC(=O)Nc1nnc(COc2ccccc2)s1
  0.7	-2.7	0	2.4%	-4	31
61: O=C(c1cccc(Cl)c1)N1c2nc(-c3ccco3)nn2C2(CCCCC2)[C@@H]2CCCC[C@@H]21
  1.2	/	/	0.7%	/	-2
62: CC(=O)Cc1ccccc1OC(=O)c1ccco1
  -0.4	-1.0	3	0.7%	-17	-5
63: COc1cccc2c(=O)cc(C)n(CC(=O)Nc3cccc(C)c3)c12
  0.3	-0.3	-17	0.5%	-13	3
64: CCOC(=O)c1c(NC(=O)CSc2cn(CCNC(=O)c3ccc(OCC)cc3)c3ccccc23)sc2c1CCC2
  0.0	/	/	3.2%	/	4
65: O=C(c1ccc(F)cc1)C1CCN(C(=O)N2CCOCC2)CC1
  1.6	-1.2	3	-1.1%[38.3 µM]	-5	5
66: COc1ccc(-c2noc(CSCC(=O)Nc3ccc(C)cc3Br)n2)cc1OC
  2.8	/	/	-14%	/	37
67: O=C(COc1ccccc1)Nc1ccccc1C(=O)NC1CC1
  -0.7	-6.5	-4	2.0%	-19	-17
68: COC(=O)c1cc(S(=O)(=O)N2CCN(Cc3ccccc3)CC2)c[nH]1
  -0.4	1.2	1	0.5%	-13	-5

A second format for some results above:
67: O=C(COc1ccccc1)Nc1ccccc1C(=O)NC1CC1
68: COC(=O)c1cc(S(=O)(=O)N2CCN(Cc3ccccc3)CC2)c[nH]1

Compound | 67 | 68
TRPML1 ag | -0.7 | -0.4
D2 agonist | -6.5 | 1.2
Six1-Eya2 blk | -4 | 1
PINK1 modulator | 2.0% | 0.5%
D2 potentiator | -19 | -13
TRPML1 inh | -17 | -5

Compound activity (PubChem BioAssay)
